Bioassay records (PubChem BioAssay)
GIV-Gai inh: blocks GIV peptide binding to rat Galpha-i3; percent of control (FP), % (test concentration not listed); P08753; Galpha-i3/FITC-GIV peptide fluorescence polarization, 90 min; hits give low values; scaled: aluminum fluoride 0%, vehicle 100%; 210,000 compounds, 0.42% hits;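 active means replicate mean at 85% of control or lower, very high polarization wells dropped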;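 further: wells of about 15 µL received 100 nL stock; the first replicate is given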
Target sequence (P08753 whole entry, looked up): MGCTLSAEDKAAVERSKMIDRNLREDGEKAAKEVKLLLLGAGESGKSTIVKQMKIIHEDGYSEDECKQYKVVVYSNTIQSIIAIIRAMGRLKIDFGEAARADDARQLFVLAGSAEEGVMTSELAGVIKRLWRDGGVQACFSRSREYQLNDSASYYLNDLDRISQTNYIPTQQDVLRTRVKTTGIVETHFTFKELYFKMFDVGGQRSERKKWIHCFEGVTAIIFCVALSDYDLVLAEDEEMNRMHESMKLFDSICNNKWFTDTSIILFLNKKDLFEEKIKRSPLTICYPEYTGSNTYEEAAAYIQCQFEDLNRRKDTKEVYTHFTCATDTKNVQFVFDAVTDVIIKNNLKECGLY
Active calls of the source: *. The list is partial; rates above refer to the full screens.

SMILES | GIV-Gai inh
CN(C)CC(=O)NC(C)(C)c1nc2c(c(C(N)=O)n1)OCO2 | 103
Cc1nn(-c2ccc3nncn3n2)c(C)c1CCC(=O)NC1CCCCC1 | 100
COc1ccc(N2C(=O)C3C4c5ccccc5C(C=Nc5ccccc5C)(c5ccccc54)C3C2=O)cc1 (centres undefined) | 111
COc1nc(C(F)(F)F)cc(C)c1C#N | 121
CC(C)CCNC(=O)c1cc2c(n(-c3ccc(F)cc3)c1=O)CCCC2=O | 100
CCCNS(=O)(=O)c1ccc2c(c1)N(Cc1noc(C)n1)C(=O)CO2 | 106
Cc1c(Br)c(C(F)(F)F)nn1CC(=O)NCc1ccc(F)cc1C(F)(F)F | 115
CC(=O)N(C(C)=O)C1=C(C#N)C2(CCCC2)Cc2ccccc21 | 107
CCSc1nccc2c1ccn2CC(=O)NC(C)c1ccc(C)cc1 (centres undefined) | 109
COCc1cc(C)nc(OCC(=O)c2ccccc2)c1C#N | 117
O=C(Nc1ccc(-c2cn3c(C(=O)N4CCCC4)csc3n2)cc1)c1ccccc1F | 108
COc1ccc(C2C(N3C(=O)c4c(Cl)c(Cl)c(Cl)c(Cl)c4C3=O)C(=O)N2c2cc(Cl)cc(Cl)c2)cc1Br (centres undefined) | 103
CN(C)c1ccc(/C=C2\SC(=O)N(CCN=C3NS(=O)(=O)c4ccccc43)C2=O)cc1 | 113
CC1CCCN(CC2CCN(S(=O)(=O)Cc3ccc(Cl)cc3)CC2)C1 (centres undefined) | 105
O=C(/C=C/c1ccccc1)Nc1ccc(S(=O)(=O)N2CCCCC2c2cccnc2)cc1 (centres undefined) | 111
COC(=O)c1cc(C(=O)OC)cc(N2C(=O)CSC2c2c(F)cccc2Cl)c1 (centres undefined) | 110
CC(C)NC(=O)c1nsc(C(=O)N2CCN(C(C)C)CC2)c1N | 99
Cc1ccc(-c2[nH]ncc2CN2CCCC2c2c(C)noc2C)cc1 (centres undefined) | 120
O=C(Nc1ccc(F)cc1)N1CCC(n2cnc3c(Cl)cccc3c2=O)CC1 | 106
CCc1cc(-c2csc(S(=O)(=O)NCCCc3ccccc3)c2)on1 | 99
COC(=O)c1c(NC(=O)c2ccc3c(c2)OCCO3)sc2c1CCC2 | 107
CCOC(=O)c1sc(NC(=O)C(CC)Sc2nc3ccccc3[nH]2)nc1C (centres undefined) | 113
COc1ccc(NC(=O)CSc2nc3n[nH]c(C)c3c(=N)n2-c2cc(Cl)ccc2C)c(OC)c1 | 105
COc1cc(C2C(C(=O)OCCOc3ccccc3)=C(C)NC3=C2C(=O)CCC3)ccc1OC(C)=O (centres undefined) | 106
O=c1/c(=C\c2ccc(Br)cc2)sc2nc(-c3ccccc3)c(-c3ccccc3)n12 | 111
CCOC(=O)C1=C(C)N=c2s/c(=C/c3cc(Cl)ccc3O)c(=O)n2C1c1ccc2c(c1)OCO2 (centres undefined) | 118
Cc1c(C(c2ccccc2)c2c(C)n(C)n(-c3ccccc3)c2=O)c(=O)n(-c2ccccc2)n1C | 98
CCc1onc(C)c1C1CCCN1Cc1ccc(N(CC)CC)cc1 (centres undefined) | 109
Cc1csc(-c2cc(S(=O)(=O)Nc3ccc(Cl)cc3)cn2CC(=O)N2CCCC2)n1 | 106
COc1ccc(-c2cc(C(F)(F)F)n3nc(C(=O)N4CCCCC4)cc3n2)cc1OC | 108
COc1ccc(-n2nnnc2CNC(=O)C2CC(=O)N(c3ccc(C)cc3)C2)cc1 (centres undefined) | 99
O=C(Nc1cccc2nsnc12)c1cccc(-n2cnnc2)n1 | 101
Cc1cc(C2CCCN2Cc2ccccc2O)on1 (centres undefined) | 95
O=C(CSc1nc2ccccc2c(=O)n1CC1CCC(C(=O)NCC2CCCO2)CC1)NCc1ccccc1 (centres undefined) | 112
CCOc1ccc(N2S(=O)(=O)c3ccccc3S2(=O)=O)cc1 | 112
Cn1c(=O)oc2cc(S(=O)(=O)N3CCC(c4ccncc4)CC3)ccc21 | 103
COc1cccc(NC(=O)c2sc3nc4c(c(-c5ccco5)c3c2N)CCCC4)c1 | 105
Cc1ccc(Cc2nnc(-c3cc(N)ccc3F)o2)cc1 | 99
CCOc1ccc2c(c1)=C(c1sc(NS(=O)(=O)c3ccc(C)cc3)nc1O)C(=O)N=2 | 100
COc1ccc(C2NC(=O)c3c(sc4c3CCC(C(C)(C)C)C4)N2)c(OC)c1 (centres undefined) | 107

14 entries already listed, ordered by heavy-atom count, descending:
SMILES | GIV-Gai inh
O=C(CSc1nc2ccccc2c(=O)n1CC1CCC(C(=O)NCC2CCCO2)CC1)NCc1ccccc1 (centres undefined) | 112
COc1cc(C2C(C(=O)OCCOc3ccccc3)=C(C)NC3=C2C(=O)CCC3)ccc1OC(C)=O (centres undefined) | 106
Cc1c(C(c2ccccc2)c2c(C)n(C)n(-c3ccccc3)c2=O)c(=O)n(-c2ccccc2)n1C | 98
CCOC(=O)C1=C(C)N=c2s/c(=C/c3cc(Cl)ccc3O)c(=O)n2C1c1ccc2c(c1)OCO2 (centres undefined) | 118
COc1ccc(-c2cc(C(F)(F)F)n3nc(C(=O)N4CCCCC4)cc3n2)cc1OC | 108
COc1ccc(-n2nnnc2CNC(=O)C2CC(=O)N(c3ccc(C)cc3)C2)cc1 (centres undefined) | 99
O=c1/c(=C\c2ccc(Br)cc2)sc2nc(-c3ccccc3)c(-c3ccccc3)n12 | 111
COc1ccc(C2NC(=O)c3c(sc4c3CCC(C(C)(C)C)C4)N2)c(OC)c1 (centres undefined) | 107
Cn1c(=O)oc2cc(S(=O)(=O)N3CCC(c4ccncc4)CC3)ccc21 | 103
CCc1onc(C)c1C1CCCN1Cc1ccc(N(CC)CC)cc1 (centres undefined) | 109
O=C(Nc1cccc2nsnc12)c1cccc(-n2cnnc2)n1 | 101
CCOc1ccc(N2S(=O)(=O)c3ccccc3S2(=O)=O)cc1 | 112
Cc1ccc(Cc2nnc(-c3cc(N)ccc3F)o2)cc1 | 99
Cc1cc(C2CCCN2Cc2ccccc2O)on1 (centres undefined) | 95

New compounds follow.
SMILES | GIV-Gai inh
O=C(NCc1ccc(F)cc1Cl)C1CCN(c2ncccc2-c2nc(-c3ccccc3)no2)CC1 | 112
CC1=NN(c2ccc(S(N)(=O)=O)cc2)C(=O)/C1=C/c1ccc(-c2ccc3c(c2)C(=O)OC3)o1 | 98
Cc1ccc(C(=O)N2CCN(c3ncnc4c3CCC4)CC2)s1 | 94
COc1ccc(N2C(=O)/C(=C/c3ccc(-c4ccc(Br)cc4)o3)C=C2c2ccccc2)cc1 | 137
CCn1c(=O)c(=O)n(CC(=O)NCc2c(C)nn(C)c2C)c2cccnc21 | 103
Cc1cccc(N(CCOC(=O)C2CC(=O)N(c3ccccc3)C2)C2=NS(=O)(=O)c3ccccc32)c1 (centres undefined) | 116
COc1ccc(NC(=O)c2nnc(C3CCN(S(=O)(=O)c4ccccc4C)CC3)s2)cc1 | 104
O=S(=O)(c1cc(-c2cc(C(F)(F)F)on2)cs1)N1CCN(c2cccc(Cl)c2)CC1 | 98
Cc1cc(C)nc(NS(=O)(=O)c2ccc(NC(=O)c3sc4nc(-c5ccccc5)cc(C(F)(F)F)c4c3N)cc2)n1 | 194
c1csc(-c2[nH]ncc2CN2CCCCCC2c2cccs2)c1 (centres undefined) | 108
CCOC(=O)c1c(CSc2nc(C)c(CC)c(C)c2C#N)n(C)c2cc(Br)c(OC(C)=O)cc12 | 105
C=CCN1C(=O)CC(C(=O)Nc2ccc(C(=O)OC)cc2)SC1=Nc1ccc(Cl)cc1 (centres undefined) | 101
CCc1cc(Sc2nnc(NC(=O)Nc3ccc(Br)cc3)s2)n2ncnc2n1 | 101
COc1ccc(CN2C(=O)CC(C(=O)NCCc3ccc(S(N)(=O)=O)cc3)SC2=Nc2ccccc2)cc1 (centres undefined) | 106
Fc1ccc(CN2CCC3(CC2)N=C(C2CC2)NO3)cc1 | 109
O=C(NCCN1CCCCC1)C1CCN(c2cnc(N3CCCC3)nc2)CC1 | 99
O=S(=O)(c1ccccc1)N1CCN(c2ncnc3c2nnn3-c2cccc(F)c2)CC1 | 99
Nc1nonc1-c1noc(-c2ccc(COc3ccccc3Br)cc2)n1 | 111
O=S(=O)(Cc1ccc(Cl)cc1)N1CCc2nc(-c3ccc(Cl)cc3)ncc2C1 | 99
Cc1c(C(=O)NCc2ccc(F)cc2)sc2ncnc(N3CCC(C)CC3)c12 | 102
CCCOc1ccc(C2C(C(=O)OCCOc3ccccc3)=C(C)NC3=C2C(=O)CCC3)cc1OC (centres undefined) | 106
O=c1ccc2cc(S(=O)(=O)N3CCN(C(c4ccccc4)c4ccccc4)CC3)ccc2[nH]1 | 101
Cc1ccc(-c2nc(-c3ccc(Cl)cc3)[nH]c2-c2ccccc2)cc1C | 102
Cc1cccc(-c2nc(Cn3c(=O)c4cccnc4n(-c4ccccc4)c3=O)c(C)o2)c1 | 97
O=c1[nH]c(SCc2ccccc2Cl)nc2c1CN(Cc1ccccc1)CC2 | 98
O=C(Cn1c(=O)n2nc(-c3ccccc3)nc2c2ccccc21)c1ccc2c(c1)OCO2 | 101
O=C(c1ccccc1)N1CCN(Cc2cc(=O)n3nc(-c4ccccc4Cl)sc3n2)CC1 | 98
CCN(CC)C(=O)CN1C(=O)C2(Nc3ccccc3C(=O)N2c2ccccc2)c2cc(Br)ccc21 (centres undefined) | 111
O=C(NCc1csc(-c2ccccc2)n1)[C@H]1CSCN1C(=O)CCc1ccccc1 | 109
Cc1cn(C)c(CC(=O)N2CCCC2)c1C(=O)O | 100
O=S(=O)(Nc1cccc(F)c1)c1ccccc1-c1nc(-c2ccccc2)no1 | 99
CC(=O)Nc1cccc(-c2nc(-c3ccc4c(c3)oc(=O)n4C)no2)c1C | 104
O=C(Nc1c(-c2ccccc2)nc2ccc(Cl)cn12)c1ccco1 | 99
Cc1cc(C)cc(-n2ncc3c(N(C)C)ncnc32)c1 | 99
O=C(NCc1cccs1)c1ccc(N2CC3CC(C2)c2cccc(=O)n2C3)c(NC(=O)c2cccc(C(F)(F)F)c2)c1 (centres undefined) | 111
CC(C)(C)c1csc(-c2csc(S(=O)(=O)NC3CCCCCC3)c2)n1 | 107
COC(=O)CN1C(=N)N(c2nc(N(C)C)nc(N(C)C)n2)CC1=O | 106
O=C(CC1CCCC1)N1CCN=C1N1CCCC1 | 105
CCCn1c(=O)c(N2CCC(NC(=O)Nc3ccc(Cl)cc3)CC2)nc2ccccc21 | 100
Cc1nnc(-c2cccc(Cl)c2)nc1N1CCC2(CC1)OCCO2 | 101
CCOc1ccc(-c2noc(CSc3nc4cc5c(cc4c(=O)n3C3CCCC3)OCO5)n2)cc1 | 106
CCOC(=O)c1cc2c(c(CSc3nc4sc(C(=O)OCC)c(C)c4c(=O)n3Cc3ccco3)c1)OCOC2 | 106
Cc1nc(C)c(-c2nc(-c3ccc(-c4csc(C5CC5)n4)cc3)no2)s1 | 105
O=C1CC(C(=O)c2ccc3c(c2)OCO3)c2c(n[nH]c2-c2ccc(Cl)cc2)N1 (centres undefined) | 99
O=C1C(=O)N(c2ccc(C(=O)O)c(O)c2)C(c2ccc(Br)cc2)/C1=C(/O)c1ccccc1 (centres undefined) | 103
CCCCN(CC)C(=O)c1c[nH]c2ccc(S(=O)(=O)N(C)c3ccc(Br)cc3)cc2c1=O | 97
Cc1ccc(C2(c3ccc(C)cc3)CC2C(=O)Nc2ccc(I)cc2)cc1 (centres undefined) | 106
O=S(=O)(c1ccc2c(c1)CCC2)N1CCCC1c1nc(-c2ccc(Cl)cc2)no1 (centres undefined) | 106
CCn1cc(SCC(=O)N2N=C(c3cccs3)CC2c2ccc(OC)cc2)c2ccccc21 (centres undefined) | 111
O=C(CN1C(=O)CCCc2cc(S(=O)(=O)N3CCCC3)ccc21)NCc1ccccc1Cl | 101

Other structures follow.
SMILES | GIV-Gai inh
Cc1cc(C(=O)N2CCC(c3nc(C(=O)N4CCSCC4)c(C)o3)CC2)no1 | 98
COc1cc(C2C(C#N)=C(N)OC3=C2C(=O)CC(C)(C)C3)cc(OC)c1OC(=O)N1CCOCC1 (centres undefined) | 97
Cc1sc(-c2cc(C(F)(F)F)on2)cc1S(=O)(=O)N1CCN(c2ccccc2)CC1 | 103
CC1CCN(CCCNC(=O)c2ccc3c(=O)n(Cc4ccc(Cl)cc4)c(=S)[nH]c3c2)CC1 | 105
O=S(=O)(Nc1cccc2c1CCCC2)c1cc(-c2noc(C3CCC3)n2)cs1 | 95
CCC(=O)N1CCCC(C)(C(=O)NCc2cccc(F)c2)C1 (centres undefined) | 115
CCOc1ccc(C2C3(OC(c4ccc(Cl)cc4)C24C(=O)c2ccccc2C4=O)C(=O)c2ccccc2C3=O)cc1 (centres undefined) | 112
CCC(=O)Nc1cnc(N2CCN(C(c3ccccc3)c3ccccc3)CC2)c(C(=O)O)c1 | 108
COC(=O)c1c(N2C(N)=C(C#N)C(c3cccnc3)C3=C2CCCC3=O)sc2c1CCCC2 (centres undefined) | 103
COc1cccc2c1OC(c1ccc(F)c(F)c1)N1N=C(c3cccnc3)CC21 (centres undefined) | 111
O=C(Nc1ccccc1Cl)Nc1nc(-c2ccc(F)cc2)cn1/N=C/c1ccc(Cl)cc1Cl | 118
CCOc1ccc(N=Cc2c(C)[nH]n(-c3ccc(C)c(C)c3)c2=O)cc1 | 113
CCCCN(C)c1ccc2nnc(CCc3nc(-c4ccc(Br)cc4)no3)n2n1 | 101
COc1cc(/C=c2\sc3nc4ccccc4n3c2=O)ccc1OCC(=O)Nc1ccc(C)c(C)c1 | 101
O=C(CSc1ccccc1)Nc1cc(F)c2nc(N3CCOCC3)ccc2c1 | 103
COC(=O)C1=C(C(=O)OC)SC2(S1)C(C(=O)OC)=C(C(=O)OC)SC1=C2c2cc(C)cc(C)c2N(C(=O)C(C)C)C1(C)C | 108
C=CCn1c(=O)c2sc(N3CCCCC3)nc2n(CC(=O)Nc2ccc3c(c2)OCO3)c1=O | 99
Cn1cnc2c(-c3cccc(F)c3)csc2c1=O | 106
